# Bm FixLJ act: activators of Burkholderia fixLJ two-component system. B. multivorans fixK-promoter GFP reporter, 18 h; active compounds read high. z-score (test concentration not listed). 0.3% of 29,000 active;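 active = replicate mean overnight rise in green fluorescent reporter signal, 3 or more SD over negative controls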;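 also: score is relative to vehicle wells of the plate; 300 nL library stock went into each well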
# The depositor's hits bear a star; & = joins results of further samples.
canonical_smiles | Bm FixLJ act
Cc1ccc(C(=O)Nc2cccc(-c3nc4ccccc4o3)c2)c(Cl)c1 | 0.02
CCOC(=O)c1cc(-c2ccc(C)cc2)n(CCC(=O)Nc2ccc(OC)c(OC)c2)c1C | 0.24
O=C(c1ccc(F)cc1)c1cn(Cc2ccccc2F)c2cc3c(cc2c1=O)OCCO3 | -0.25
CCc1ccc(NS(=O)(=O)c2ccc3[nH]cc(C(=O)NCCCOC(C)C)c(=O)c3c2)cc1 | -0.07
Cc1cccc(NC(=O)Cn2c(=O)n(CCc3ccccc3)c(=O)c3sc4ccccc4c32)c1 | 0.13
O=C(O)c1ccc(NC(=O)c2cc3ccccc3o2)cc1 | 1.45
CCc1ccc(C(=O)c2cn(CC(=O)Nc3ccc(F)cc3)c3ccc(F)cc3c2=O)cc1 | -0.53
Cc1ccc(CNC(=O)c2nc(SCc3ccccc3F)ncc2Cl)cc1 | 0.4
CCOC(=O)CC(NC(=O)CCc1c(C)nc2ncnn2c1C)c1ccc(C)cc1 (configuration not stated) | 0.07
Cc1cc(C(F)(F)F)nc(CNC(=O)c2cccc(Cn3cccn3)c2)n1 | -1.83
COc1ccc(-c2n[nH]c3c2C(c2ccccn2)N(C)C3=O)cc1 (configuration not stated) | -1.42
CCn1c(COc2ccc(Cl)cc2Cl)nc2ccccc21 | -1.29

# Additional compounds follow:
canonical_smiles | Bm FixLJ act
Cc1cccc(-n2c(=O)c3c(c4cc(C)ccc4n3C)n(CC(=O)Nc3ccccc3C(F)(F)F)c2=O)c1 | -0.21
CC(=O)c1[nH]c(C)c(C(=O)NCC2CN(S(C)(=O)=O)CCO2)c1C (configuration not stated) | -0.2
CCC(C)c1ccc(OCC(=O)Nc2cccc3ccc(C)nc23)cc1 (configuration not stated) | -0.57
COc1ccc(-c2noc(CSc3nc4ccccc4[nH]3)n2)cc1OC | -2.24
CCOc1ccccc1CNCCNC(=O)c1nonc1N | -0.81
Cn1c(NCCO)nc2c1c(=O)n(Cc1cccc(F)c1)c(=O)n2C | -0.92
COc1cc2nc(NCc3ccccc3)n3nc(-c4ccccc4)nc3c2cc1OC | -0.71
O=C(CCC1N=C2c3ccccc3N=C(SCc3cccc(Cl)c3)N2C1=O)NCCc1ccccc1 (configuration not stated) | -1.6
CCOc1cc(Cl)c(S(=O)(=O)n2cc(C)nc2CC)cc1Cl | -1.81
Cc1c(/C=C(\C#N)C(=O)Nc2cccc(Cl)c2)c2ccccc2n1Cc1ccccc1 | -5.09
O=C(CCS(=O)(=O)c1nc(-c2ccc3c(c2)OCO3)cc(C(F)(F)F)n1)Nc1ccccc1C(F)(F)F | -0.93
COc1ccc(NC(=O)C2CCCN(S(=O)(=O)c3c(C)n[nH]c3C)C2)cc1OC (configuration not stated) | 0.36

# Four of these compounds in a different format.
CCC(C)c1ccc(OCC(=O)Nc2cccc3ccc(C)nc23)cc1 (configuration not stated)
- Bm FixLJ act = -0.57
COc1ccc(-c2noc(CSc3nc4ccccc4[nH]3)n2)cc1OC
- Bm FixLJ act = -2.24
CCOc1ccccc1CNCCNC(=O)c1nonc1N
- Bm FixLJ act = -0.81
Cn1c(NCCO)nc2c1c(=O)n(Cc1cccc(F)c1)c(=O)n2C
- Bm FixLJ act = -0.92

# Next section.
canonical_smiles | Bm FixLJ act
COc1ccc(NC(=O)C(Cc2ccccc2)NS(=O)(=O)c2ccc(Br)s2)cc1OC (configuration not stated) | -0.14
CN(CCn1ccnc1)C(=O)c1ccc(-c2cnn(CC3CC3)c2)cc1 | 1.39
CC(=O)c1cccc(NC(=O)Cn2c(=O)oc3cc(S(=O)(=O)N4CCCC4)ccc32)c1 | 1.8
COc1cc2c(-c3ccccc3C)nc3c(c(C)nn3-c3ccccc3)c2cc1OC | -0.5
Cc1ccccc1-c1nnc(C2CCN(S(=O)(=O)c3ccc(Cl)cc3)CC2)o1 | -1.24
Cc1c(O)cccc1C(=O)N1CCc2c(nc(-c3cccnc3)[nH]c2=O)C1 | 0.17
CCC(CC)NC(=O)c1cc(COc2cccc(F)c2)[nH]n1 | -0.55
Cc1c2cnn(-c3ccccc3)c(=O)c2c(C)n1CCCC(=O)Nc1cccc(F)c1 | -0.98
CCCCNC(=O)CCn1nc(-c2ccc(Cl)cc2)c2ccccc2c1=O | -3.27
CCOc1ccc(C(=O)NCCn2cc(SCC(=O)Nc3ccccc3)c3ccccc32)cc1 | 0.67
CCc1nn2c(=O)c(S(=O)(=O)Nc3ccc(Br)cc3F)c(C)nc2s1 | -1.46
CCc1ccc(NC(=O)N(Cc2c[nH]c3ccccc23)C2CCCCCC2)cc1 | -0.35

# (more compounds)
canonical_smiles | Bm FixLJ act
CCOc1ccccc1NC(=O)CSc1nc2c(oc3ccccc32)c(=O)n1-c1ccc(C)c(C)c1 | -0.66
CCOc1ccccc1C(=O)N(Cc1cc(OC)c(OC)c(OC)c1)C1CCS(=O)(=O)C1 (configuration not stated) | -1.1
CCOC(=O)OC(C)OC1=C(C(=O)Nc2ccccn2)N(C)S(=O)(=O)c2ccccc21 (configuration not stated) | -1.08
CCC(=O)OCC(=O)[C@@]1(OC(=O)CC)[C@@H](C)CC2C3CCC4=CC(=O)C=C[C@]4(C)C3(F)[C@@H](O)C[C@@]21C (some centres not stated) | -0.84
CCOC(=O)CN1C(=O)c2ccccc2Sc2ncccc21 | -1.57
CCOC(=O)CSc1nc2sc3c(c2c(=O)n1Cc1ccccc1)CC(C)CC3 (configuration not stated) | 1.34
COc1cc(NC(=O)c2ccc3c(Cl)c4c(nc3c2)CCC4)cc(OC)c1OC | -0.21
COC(=O)C1=C(C)NC(C)=C(C(=O)OCC(C)C)C1c1ccccc1[N+](=O)[O-] (configuration not stated) | -2.13&-1.95
Cc1ccc(-c2ccc(CCC(=O)O)n2-c2cccc(O)c2)cc1 | -2.2
O=C(NCCCn1ccnc1)[C@]12COCC1CN(Cc1nccs1)C2 (some centres not stated) | 0.33
CCCCCCCCCCCCCCCC[N+](C)(C)C | -5.03
O=C(NCCc1nc(-c2cccnc2)no1)C1CC2(CCNCC2)CN1 (configuration not stated) | 1.31

# Carrying on:
canonical_smiles | Bm FixLJ act
O=C(NCc1ccccc1)c1nc(S(=O)(=O)Cc2ccc(F)cc2)ncc1Cl | -1.7
CCN(C(=O)Cn1nnc2sc(-c3ccccc3)cc2c1=O)c1cccc(C)c1 | -0.12
COc1ccc(CN2CCOC3(CCN(CC(=O)O)C3)C2)c(OC)c1OC (configuration not stated) | -1.08
Cc1ccccc1C(=O)n1nc(-c2ccco2)nc1NCc1cccs1 | -1.72
COc1cccc(OC)c1C(=O)Nc1ccc(S(=O)(=O)Nc2nccc(C)n2)cc1 | -1.41
CCOc1ccc2nc(NC(=O)c3nc(SC(C)C)ncc3Cl)sc2c1 | -4.99
CC(C)CCNC(=O)C1CCC(CNS(=O)(=O)c2cccc3nsnc23)CC1 (configuration not stated) | 0.47
CCOC(=O)c1c(NC(=O)c2cc(-c3cccc(Cl)c3)on2)sc(C(C)=O)c1C | -2.02
CN1CC2CN(C(=O)c3cccc(Cl)c3F)C[C@@]2(C(=O)O)C1 (some centres not stated) | -1.4
O=C(NC1CCC1)c1cc2c(s1)CCOC21CCN(c2ccccn2)CC1 | -1.39
CC(C)Cc1nc(CNC(=O)N2CCC(C(O)c3nccn3C)CC2)no1 (configuration not stated) | 0.31
Cc1ccc(CCNC(=O)C2CCN(c3nnc(-n4cccc4CNc4ccc(C)cc4)s3)CC2)cc1 | 1.94

# Next entries follow:
canonical_smiles | Bm FixLJ act
Cc1ccc(C2CC(=O)Nc3cc4c(cc32)OCCO4)cc1Br (configuration not stated) | 0.37
Cc1nc2ncccn2c1C(=O)N1CCC(n2c(=O)[nH]c3ccccc32)CC1 | -2.14
COc1ccc(-c2cc(=O)c3cc(OCC(=O)OC(C)C)ccc3o2)cc1 | 1.88
CCOC(=O)c1c(NC(=O)c2cc(C(C)C)on2)sc(C)c1C | 0.41
CN1CC(=O)N2CC(NC(=O)C(O)c3ccc4ccccc4c3)CC2C1=O (configuration not stated) | 1.66
NC(=O)CS(=O)C(c1ccccc1)c1ccccc1 (configuration not stated) | -1.48
COc1ccc(-c2nc3ccccc3s2)cc1NC(=O)COc1ccc(C)cc1 | 0.97
COc1ccc(Nc2nc(N)nc(N)c2S(=O)(=O)c2ccccc2)cc1 | -2.56
Cc1cc(CC2COCC2NC(=O)c2sc(C)nc2C)on1 (configuration not stated) | 0.24
Cc1oc2ccc(O)c(CN3CCN(C)CC3)c2c1C(=O)Nc1ccccc1 | -0.21
Cc1ccc(-c2nnc(Nc3cccc(O)c3)c3ccccc23)cc1S(=O)(=O)N1CCCCC1 | -0.76
Cc1sc2ncn(CC(=O)Nc3ccc(F)cc3F)c(=O)c2c1S(=O)(=O)N1CCC(C)CC1 | 0.31

# Later entries.
canonical_smiles | Bm FixLJ act
COC(=O)c1ccccc1NC(=O)c1c(C)oc2ncn(C)c(=O)c12 | -1.6
Cc1cccc(C(=O)Nc2nc3nc(-c4ccccc4)cc(=O)n3[nH]2)c1 | -0.64
COc1cc(C2C(C(=O)Nc3ccc(C)cc3C)=C(C)Nc3nc4ccccc4n32)cc(OC)c1OC (configuration not stated) | 0.1
CC(=O)c1ccccc1C(=O)N(C)Cc1cc(-c2ccccc2)no1 | 1.03
COc1cccc(CCCNC(=O)N2CCN(c3ccccc3C#N)CC2)c1 | 1.45
Cc1c(C(=O)N(Cc2ccc(N(C)C)cc2)CC2CCCO2)oc2ccccc12 (configuration not stated) | -0.97
CCOc1sc2nc(C)n(CC(=O)Nc3cccc(C)c3)c(=O)c2c1C | -1.01
COc1cc(/C=C(\C#N)c2nc3ccc(C)cc3[nH]2)ccc1OCc1ccc(C)cc1 | 0.01
CN1CCC(n2nccc2NC(=O)c2ccncc2Cl)CC1 | 0.2
COc1ccc(NC(=O)CNC(=O)Cn2ccc3ccccc3c2=O)cc1OC | 0.37
Cc1cccc(C)c1C(=O)NC1COCC1Cc1ccncc1 (configuration not stated) | -3.67
CCc1nc(C)c(C(=O)NCCc2nc(-c3cccnc3)no2)o1 | -1.63

# Following part:
canonical_smiles | Bm FixLJ act
Cc1ccc(OCCCN(C)C(=O)NCc2ccc(C(=O)O)o2)c(C)c1 | -1.13
CC(O)c1nc2ccc(NC(=O)c3ccc(OCC(=O)N4CCCCC4)cc3)cc2[nH]1 (configuration not stated) | 0.99
CC(=O)Nc1ccc(CNC(=O)CN(C)Cc2cc(C)no2)cc1 | -1.83
OCC1CCCN(CCNCc2ccnn2-c2ccccc2)C1 (configuration not stated) | -2.93
COc1ccc(-c2cc3nc(C4CCN(C(=O)OC(C)(C)C)CC4)c(C(=O)Nc4cc(C)cc(C)c4)cn3n2)cc1 | 0.44
Cc1ccc(C2(CN(C)Cc3ccc4nsnc4c3)CCNCC2)nc1 | -0.99
CCn1c(C(=O)N2CCCC(C(=O)N3CCN(c4cc(C)ccc4C)CC3)C2)cc2sccc21 (configuration not stated) | -0.08
Cn1c2c(c(=O)n(C)c1=O)C(c1ccccc1C(F)(F)F)CC(=O)N2 (configuration not stated) | -0.43
COc1ccccc1NC(=O)CSc1oc(-c2ccc(F)cc2)nc1S(=O)(=O)c1ccc(Br)cc1 | -0.86
O=C(CSCn1nnc2c(=O)[nH]c(Cc3ccc(F)cc3)nc21)Nc1cccc(C(F)(F)F)c1 | -1.12
CCOCCCNC(=O)c1cc2c(=O)n(C)c3ccccc3c2n1C | -2.28
Cc1cc(C)n(CCC(=O)Nc2c(C)nn(C3CCS(=O)(=O)C3)c2C)n1 (configuration not stated) | -0.02

# The list continues.
canonical_smiles | Bm FixLJ act
COCCOC(=O)c1c(C)oc2c1cc(NS(=O)(=O)c1ccc(Cl)c(C)c1)c1ccccc12 | 0.84
Cc1ccc(CNC(=O)c2c(O)nc3c(C)cccn3c2=O)cc1 | -1.26
COc1ccccc1NC(=O)c1nnn(-c2ccc(F)cc2)c1C | 1.49
CCN(CC)Cc1c(NC(=O)c2ccc(OC)cc2)sc2c1CCCC2 | -1.15
COc1ccc(-c2nc3ccccc3o2)cc1NC(=O)c1ccc(-c2cccc(Cl)c2C)o1 | 0.17
N#Cc1c(C(F)(F)F)cc(-c2cccs2)nc1SCc1ccc(F)cc1 | 1.15
CCS(=O)(=O)N1CCN(C(=O)C(C)Cn2cccn2)CC1 (configuration not stated) | -1.31
CCCCOc1ccc(NC(=O)CSc2ccc(C(=O)O)cn2)cc1 | -1.31
Cc1cc(NC(=O)N2CCCOC(C)C2)n(C2CCCCC2)n1 (configuration not stated) | -3.62
COc1ccc(S(=O)(=O)N(CC(=O)NCc2ccc(C)cc2)c2ccc(Cl)cc2)cc1 | 0.81
COc1ccc(N(CC(=O)N2CCc3ccccc3C2)S(=O)(=O)c2ccccc2)cc1 | -0.29
Cc1cccc(Oc2nc3ccccn3c(=O)c2/C=C(\C#N)c2nc3ccccc3s2)c1C | -1.03

# More structures follow.
canonical_smiles | Bm FixLJ act
COc1ccc(-n2nc(C(=O)N3CCN(c4ccccc4OC)CC3)c3c4ccccc4n(C)c3c2=O)cc1 | -1.09
CN(CC1Cc2ccccc2CN1C)C(=O)C=Cc1cnc(N(C)C)nc1 (configuration not stated) | -0.15
CC(C)Cn1c(=O)c2ccccc2n2c(CCC(=O)NCc3ccc(Cl)cc3)nnc12 | -1.22
COCC(NC(=O)c1cc(CC(C)C)[nH]c(=O)n1)c1ccnn1C (configuration not stated) | -0.82
Cc1ccc(NC(=O)c2c(C)oc3ccc(O)c(CN4CCN(Cc5ccccc5)CC4)c23)cc1 | 0.68
Fc1ccc(C(NCCc2ccc(Cl)cc2)c2nnc(-c3ccccc3)o2)c(Cl)c1 (configuration not stated) | 2.06
COc1ccc2c(c1)CCc1c(C(=O)Nc3ccc(F)c(Cl)c3)noc1-2 | 0.93
COc1ccc(C(=O)N/C(=C\c2cn(S(=O)(=O)N(C)C)c3ccccc23)C(=O)NCCCn2ccnc2)cc1 | 0.05

# Nothing new here: 3 of the compounds above.
canonical_smiles | Bm FixLJ act
Fc1ccc(C(NCCc2ccc(Cl)cc2)c2nnc(-c3ccccc3)o2)c(Cl)c1 (configuration not stated) | 2.06
COc1ccc2c(c1)CCc1c(C(=O)Nc3ccc(F)c(Cl)c3)noc1-2 | 0.93
COc1ccc(C(=O)N/C(=C\c2cn(S(=O)(=O)N(C)C)c3ccccc23)C(=O)NCCCn2ccnc2)cc1 | 0.05

# Source: PubChem BioAssay (ICCB-Longwood Screening Facility, Harvard Medical School)

# This is a subset, so the mix of outcomes need not match the whole.
